PMP22 txn = Cell-based coincidence reporter assay to measure PMP22 gene transcription in S16 Pmp22-F2sN cells - Primary screen | S16 Pmp22-F2sN Schwann cells (luciferase reporters placed in the Pmp22 gene), FLuc/NLuc coincidence luminescence, 24 h | Potency, µM (doses to about 57.5 µM), inactives show at the highest dose activity change, negative = inhibition, usual class: inhibitors | hit rate 2% among 43,000 | AID 1508649, 2021; active = clear falling dose curves in both reporters; inconclusive = both reporters move, but less clearly or upward; inactive = either reporter flat; the % is the NLuc reporter signal; further: on the % scale 0 is the no-effect control and ±100 the full control effect; some results filed as inactive show a strong effect at the top dose
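qHTS, 1536-well. Cells seeded, compounds added by pin tool, 24 h 37C. Nano-Glo reagent 1 (lysis/FLuc), 10 min RT, read; Stop&Glo, 10 min RT, read NLuc.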
HTT prom inh = Primary qHTS for Identification of Small Molecule Inhibitors of Huntingtin Promoter Activity; HEK293 HTT promoter firefly luciferase reporter (activity 0% = vehicle and -100% = no light), 24 h; Potency, µM (series often up to 57.5 µM), inactives show at the top dose activity change, negative = inhibition, usual class: inhibitors; hit rate 0.93% among 48,000; active means well fitted inhibition curve with a large enough effect; inconclusive means small, poorly fitted or top-dose-only effect; inactive means no such curve, though single readings can be large or run the other way; further: nearly all actives have a fitted effect of over 50% in size
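Luminescence was read after Dual-Glo reagent and a 10 min room-temperature incubation. Values were normalized to vehicle (0% activity) and zero RLU (-100% activity). Reporter HEK293 cells had been exposed to compounds (up to 57.5 uM final) for 24 h.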
* = called active by the depositor; [ ] = another dose, or the depositor's remark. Potency means the concentration at half of the fitted maximal effect.

`Cc1cccc(-c2noc(-c3ccc(N4CCOCC4)c([N+](=O)[O-])c3)n2)c1` gave PMP22 txn inconclusive and HTT prom inh -15%.
Screening Cc1ccc(Cl)cc1N(C)C(=O)c1cc2c(Cl)nc3ccccc3c2s1 returned PMP22 txn 4% and HTT prom inh 3%.
`COc1ccc2c(c1)CCc1sc(NC(=O)c3cccc(Br)c3)nc1-2` gave PMP22 txn 8% and HTT prom inh -27%.
Screening Cc1ccc(CNC(=O)c2ccc(-n3cnc4cccnc43)cc2)cc1 returned PMP22 txn 6% and HTT prom inh -18%.
Screening CCOC(=O)c1cc(NC(=O)c2ccc(F)cc2)c(=O)n2c1oc1ccccc12 returned PMP22 txn 6% and HTT prom inh 3%.
O=C(O)CCc1nc2ccccc2[nH]1 was read as HTT prom inh 4%.
For COc1cc(NC(=O)c2cc(S(=O)(=O)N3CCc4ccccc43)cn2C)cc(OC)c1OC the results were PMP22 txn 0% and HTT prom inh -29%.
For COc1ccc(NC(=O)C2CCCN2S(=O)(=O)c2ccc3nc(-c4ccccc4)[nH]c3c2)cc1 (centres undefined) the results were PMP22 txn 11% and HTT prom inh -5%.
For OC(CN1CCN(c2cccc(Cl)c2)CC1)C(c1ccccc1)c1ccccc1 (centres undefined) the results were HTT prom inh -12%.
Screening CCOc1ccccc1NC(=O)CSc1nc(-c2cccs2)cc(C(F)(F)F)n1 returned PMP22 txn inconclusive and HTT prom inh -6%.
`CCOc1ccc(NC(=O)CSc2nc(-c3ccc(F)cc3)cc(C(F)(F)F)c2C#N)cc1` gave PMP22 txn 6% and HTT prom inh -2%.
CC(CNC(=O)CCS(=O)(=O)c1ccc2c(c1)oc(=O)n2C)c1ccccc1 (centres undefined) was read as PMP22 txn 3% and HTT prom inh -4%.
For Cc1ccc(C(=O)NCCC(C)C)cc1NC(=O)c1nsc2ccccc12 the results were PMP22 txn -82% and HTT prom inh -17%.
O=C(Cn1c(-c2cccs2)cc2ccccc21)NCCc1ccc(Cl)cc1 was read as PMP22 txn 1% and HTT prom inh -24%.
Screening CCS(=O)(=O)N1CC(=O)N(c2cccc(Cl)c2)C(C)(C(=O)NC2CCCCCC2)C1 (centres undefined) returned PMP22 txn -64% and HTT prom inh -17%.
Screening Cc1ccc(-c2noc(-c3ccc(NCC4CCCO4)c([N+](=O)[O-])c3)n2)cc1 (centres undefined) returned PMP22 txn -31% and HTT prom inh 3%.
Cc1ccccc1C(=O)Nc1nnc2n1CCS2 was read as PMP22 txn 5% and HTT prom inh 46%[activator].
Screening CCCN(C(=O)Cn1cnc2onc(-c3ccc(F)cc3)c2c1=O)c1cccc(Cl)c1 returned PMP22 txn inconclusive and HTT prom inh inconclusive.
COc1ccc(CNC(=O)C(=O)Nc2ccc(OC)cc2OC)cc1 was read as PMP22 txn 14% and HTT prom inh -15%[11.5 µM].
COc1ccc(CNC(=O)c2ccc3c(c2)nc2n3CCCCC2)c(OC)c1 was read as PMP22 txn 1% and HTT prom inh 52%[activator].
Cc1ccc2[nH]c3c(=O)n(CC(=O)NC(C)C)ncc3c2c1 was read as PMP22 txn 1% and HTT prom inh 0%.
CCOC(=O)C1=C(CN2CCN(c3cccc(OC)c3)CC2)NC(=O)NC1c1ccc(OC)cc1 (centres undefined) was read as PMP22 txn inconclusive and HTT prom inh inconclusive.
`CN1C(=O)Cc2cc(S(=O)(=O)N3CCN(c4ccc(Cl)cc4)CC3)ccc21` gave PMP22 txn -7% and HTT prom inh inconclusive.
COc1ccc(NC(=O)c2cc3c(=O)n(Cc4cccs4)ccc3nc2C)cc1 was read as PMP22 txn -12% and HTT prom inh -21%.
`CCCCC(=O)Nc1nnc(SCc2cc(=O)n3cc(C)ccc3n2)s1` gave PMP22 txn 6% and HTT prom inh -6%.
Screening CC1CCN(C(=O)Cn2c(-c3cccs3)cc3cc(Cl)ccc32)CC1 returned PMP22 txn inconclusive and HTT prom inh inconclusive.
For CCOc1ccc(-n2c(=O)c3c4c(sc3n(CC(=O)Nc3cccc(C(F)(F)F)c3)c2=O)CCCCC4)cc1 the results were PMP22 txn -12% and HTT prom inh -15%.
`O=C(CSc1nc2c([nH]c3ccccc32)c(=O)n1-c1ccccc1F)Nc1ccccc1C(F)(F)F` gave PMP22 txn inconclusive and HTT prom inh inconclusive.
`CCN(CC)C(=O)Cn1c(=O)cc(C)c2c(C)nn(-c3ccc(C)cc3)c21` gave PMP22 txn -17% and HTT prom inh 0%.
COc1cccc(N2CCN(C(=O)c3cccc(-n4c(C)nc5cccnc54)c3)CC2)c1 was read as PMP22 txn inconclusive and HTT prom inh inconclusive.
For COc1ccc(CCNC(=O)CCn2c(=O)c3ccccc3n(CC(=O)Nc3ccccc3F)c2=O)cc1OC the results were PMP22 txn 5% and HTT prom inh -11%.
`O=C(CN1C(=O)COc2ccc(S(=O)(=O)N3CCCC3)cc21)N1CCN(c2ccccc2)CC1` gave PMP22 txn -18% and HTT prom inh -9%.
Screening CCCCOc1ccccc1C(=O)Nc1nonc1-c1ccccc1 returned PMP22 txn inconclusive and HTT prom inh inconclusive.
Screening COc1ccc(C(=O)NCCn2cc(SCC(=O)Nc3ccc(C)cc3)c3ccccc32)cc1 returned PMP22 txn -77% and HTT prom inh inconclusive.
O=C(CN1C(=O)C2(SCC(=O)N2c2ccc(F)c(F)c2)c2ccccc21)NCCc1ccccc1 (centres undefined) was read as PMP22 txn 4% and HTT prom inh -8%.
Screening O=C(Nc1ccc(Cl)cc1)Nc1ccc(Cl)c(Cl)c1 returned HTT prom inh inconclusive.
For Cn1c(=O)n(C)c2cc(N3CCOCC3)c(NC(=O)c3ccc(Cl)cc3)cc21 the results were PMP22 txn -20% and HTT prom inh 10%.
Screening COc1ccc(C(=O)Oc2c(Sc3ccc(C)cc3)c(C)nn2C(C)(C)C)cc1OC returned PMP22 txn -22% and HTT prom inh inconclusive.
CCC(CC)C(=O)OCc1cc(=O)n2nc(C3CCCCC3)sc2n1 was read as PMP22 txn -17% and HTT prom inh -2%.
Screening CC(C)Oc1ccc(CNC(=O)C2CCN(C(=O)N3CC(C)Oc4ccccc43)CC2)cc1 (centres undefined) returned PMP22 txn -9% and HTT prom inh inconclusive.
COc1cc(C(=O)NCc2ccc3c(c2)CCN3C(=O)c2ccc(Cl)cc2)cc(OC)c1OC was read as PMP22 txn inconclusive and HTT prom inh inconclusive.
`COc1ccc(OC)c(C2NC(=O)NC(C)=C2C(=O)Nc2ccc(F)cc2)c1` (centres undefined) gave PMP22 txn 0% and HTT prom inh -11%.
COc1cc(CN2CCN(S(=O)(=O)c3ccc(NC(C)=O)cc3)CC2)cc(OC)c1OC was read as PMP22 txn -10% and HTT prom inh -9%.
`Cc1ccc2nc(-c3ccc(NC(=O)COc4ccccc4C(C)(C)C)cc3)sc2c1` gave PMP22 txn 4% and HTT prom inh 39%[activator].
Screening CCCN(CCC)C(=O)Cn1c(=O)n(CCCCCC(=O)Nc2ccccc2)c(=O)c2sccc21 returned PMP22 txn inconclusive and HTT prom inh -10%.
For CC(=O)c1cccc(NC(=O)CCS(=O)(=O)c2ccc3c(c2)n(C)c(=O)c(=O)n3C)c1 the results were PMP22 txn 7% and HTT prom inh -16%.
CCCCOc1ccc(C2=NC(c3cccs3)=Nc3ccc(CC)cc3N2)cc1 was read as PMP22 txn inconclusive and HTT prom inh -8%.
`COc1ccc(S(=O)(=O)c2c(SC)nn(Cc3ccccc3C)c2NC(C)=O)cc1` gave PMP22 txn -17% and HTT prom inh -28%.
`O=C(Nc1ccccc1Br)C1CCCN(S(=O)(=O)c2cccc3nsnc23)C1` (centres undefined) gave PMP22 txn -32% and HTT prom inh -19%.
COc1ccccc1N1CCN(c2ccc(=O)n(CC(=O)Nc3cc(F)ccc3C)n2)CC1 was read as PMP22 txn -9% and HTT prom inh -1%.
`CC(=O)c1ccc(NC(=O)c2ccc3c(c2)N(Cc2cccc(Cl)c2)C(=O)c2ccccc2S3(=O)=O)cc1` gave PMP22 txn 2% and HTT prom inh -5%.
Screening CCOC(=O)Cn1c(=O)oc2cc(S(=O)(=O)N3CCC(C(=O)OCC)CC3)ccc21 returned PMP22 txn -12% and HTT prom inh -24%.
Screening Cc1cccc(N(C)S(=O)(=O)c2cc3c(cc2Cl)NC(=O)CO3)c1 returned PMP22 txn -11% and HTT prom inh -27%.
For Cc1ccc(C(=O)c2cn(Cc3ccccc3F)c3cc4c(cc3c2=O)OCCO4)cc1 the results were PMP22 txn inconclusive and HTT prom inh 2%.
For Cc1ccc(-n2ncc3c(Nc4cccc(C(=O)O)c4)ncnc32)cc1 the results were PMP22 txn 5% and HTT prom inh -12%.
Screening Cc1ccc(S(=O)(=O)N2CCc3cc(C(=O)Nc4ccc(C(F)(F)F)cc4)ccc32)cc1 returned PMP22 txn -32% and HTT prom inh inconclusive.
For CCCC1=Nc2cc(C(=O)NCCc3ccccc3)ccc2Sc2ccc(C)cc21 the results were PMP22 txn inconclusive and HTT prom inh inconclusive.
Screening COc1ccc(NC(=O)Cn2c(SCc3cccc(Cl)c3)nc3ccncc32)c(OC)c1OC returned PMP22 txn -14% and HTT prom inh 13%.
CCOc1ccc(CCNC(=O)Cn2ncc3c(=O)oc4ccc(C)cc4c32)cc1 was read as PMP22 txn -2% and HTT prom inh 10%.
For CCOC(=O)c1ccc(NS(=O)(=O)c2cc(-c3onc(C)c3C)ccc2C)cc1 the results were PMP22 txn 1% and HTT prom inh -20%.
Screening CCC(=O)C1=C(c2cccc(OC)c2)N(C(=O)CC)n2c(nnc2C2CCCCC2)S1 returned PMP22 txn inconclusive and HTT prom inh inconclusive.
Cc1nc(N2CCCC2)c2c(C(=O)Nc3ccc(C)c(Cl)c3)c(C)oc2n1 was read as PMP22 txn -17% and HTT prom inh 0%.
Screening CCOC(=O)c1cccc(NC(=O)c2cc3c(=O)n(Cc4cccnc4)ccc3nc2C)c1 returned PMP22 txn -21% and HTT prom inh -7%.
For Cc1ccc(NC(=O)c2cc(-c3cccs3)nc3ccccc23)c(C)c1 the results were PMP22 txn inconclusive and HTT prom inh -12%.
COc1ccc(-c2cc(C(F)(F)F)n3nc(C(=O)Nc4ccccc4SC)cc3n2)cc1OC was read as PMP22 txn -18% and HTT prom inh -4%.
Screening CC(=O)Nc1ccc(C)cc1-c1nc2ccccc2n(CC(=O)c2ccc(C)c(C)c2)c1=O returned PMP22 txn 21% and HTT prom inh -7%.
CCNS(=O)(=O)c1ccc(NC(=O)CSc2nc(-c3ccco3)cc(C(F)(F)F)n2)cc1 was read as PMP22 txn inconclusive and HTT prom inh inconclusive.
Cc1cccc(CN2C(=O)c3ccccc3S(=O)(=O)c3ccc(C(=O)NC4CCCCC4)cc32)c1 was read as PMP22 txn -9% and HTT prom inh -8%.
COc1ccc(NC(=O)Cn2c(=O)n(-c3cccc(C)c3)c(=O)c3c2c2cc(C)ccc2n3C)cc1OC was read as PMP22 txn -20% and HTT prom inh -3%.
For O=C(COC(=O)c1cc(-c2ccccc2)nc2c(Cl)cccc12)c1ccc(F)cc1 the results were PMP22 txn -15% and HTT prom inh -20%.
`CCCCN(C)CCNC(=O)c1cc2c(=O)n(C)c3ccccc3c2n1C` gave PMP22 txn -14% and HTT prom inh 11%.
Screening CCOC(=O)c1ccccc1NC(=O)N(Cc1ccc(CC)cc1)Cc1cn[nH]c1-c1ccc(OC)cc1 returned PMP22 txn inconclusive and HTT prom inh inconclusive.

Part of the list above in order of length of the SMILES, ascending:
`CCCCN(C)CCNC(=O)c1cc2c(=O)n(C)c3ccccc3c2n1C` gave PMP22 txn -14% and HTT prom inh 11%.
Cc1nc(N2CCCC2)c2c(C(=O)Nc3ccc(C)c(Cl)c3)c(C)oc2n1 was read as PMP22 txn -17% and HTT prom inh 0%.
For O=C(COC(=O)c1cc(-c2ccccc2)nc2c(Cl)cccc12)c1ccc(F)cc1 the results were PMP22 txn -15% and HTT prom inh -20%.
Screening CCOC(=O)c1cccc(NC(=O)c2cc3c(=O)n(Cc4cccnc4)ccc3nc2C)c1 returned PMP22 txn -21% and HTT prom inh -7%.
Screening CC(=O)Nc1ccc(C)cc1-c1nc2ccccc2n(CC(=O)c2ccc(C)c(C)c2)c1=O returned PMP22 txn 21% and HTT prom inh -7%.
CCNS(=O)(=O)c1ccc(NC(=O)CSc2nc(-c3ccco3)cc(C(F)(F)F)n2)cc1 was read as PMP22 txn inconclusive and HTT prom inh inconclusive.

Next records follow:
For O=S(=O)(c1ccc(-c2cc(C(F)(F)F)on2)s1)N1CCN(c2ccccc2F)CC1 the results were PMP22 txn inconclusive and HTT prom inh 4%.
Screening COc1ccc(N2CCN(S(=O)(=O)c3ccc4c(c3)CCCN4C(C)=O)CC2)cc1 returned PMP22 txn -14% and HTT prom inh -17%.
Cc1ccc2cccc(NC(=O)c3ccc(-c4cccc([N+](=O)[O-])c4)o3)c2n1 was read as PMP22 txn inconclusive and HTT prom inh inconclusive.
Screening Cc1ccc(Cn2ccc(NC(=O)c3cc(-c4ccc(Cl)c(Cl)c4)on3)n2)cc1 returned PMP22 txn inconclusive and HTT prom inh 12%[11.5 µM].
Cc1cccc(NC(=O)Cn2c(=O)oc3cc(S(=O)(=O)N4CCCCCC4)ccc32)c1 was read as PMP22 txn inconclusive and HTT prom inh 10µM*.

Bioassay records as filed in PubChem BioAssay.
